Cruzain inh Det – blocks cruzain activity in presence of Triton detergent; AID 1478; purified cruzain, Z-FR-AMC fluorescence, 0.01% Triton; 200,000 tested, 0.43% active; P25779; Potency, µM, inactives show max response, negative = inhibition, actives largely listed as inhibitors;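 also: plate controls were neutral wells for no effect and buffer without enzyme for full effect; nearly all actives have a fitted effect of over 40% in size; top concentration of the series not given in the record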
Target sequence (P25779 123-467 limits assumed): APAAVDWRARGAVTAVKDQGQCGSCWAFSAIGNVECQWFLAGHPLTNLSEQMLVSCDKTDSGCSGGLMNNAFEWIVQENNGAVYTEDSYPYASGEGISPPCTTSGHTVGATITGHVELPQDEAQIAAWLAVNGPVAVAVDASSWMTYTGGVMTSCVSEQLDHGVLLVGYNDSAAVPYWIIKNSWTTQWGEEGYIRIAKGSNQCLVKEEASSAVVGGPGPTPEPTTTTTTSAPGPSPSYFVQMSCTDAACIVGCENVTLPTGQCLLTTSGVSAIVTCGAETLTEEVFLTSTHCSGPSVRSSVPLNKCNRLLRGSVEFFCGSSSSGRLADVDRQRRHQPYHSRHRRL
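Detergent-containing arm of a paired screen for aggregation-based inhibition: 0.01% Triton X-100 present. Cruzain at 1.5 nM cleaved 2 uM Z-FR-AMC at pH 5.5 with 5 mM DTT; AMC fluorescence gain over 60 s measured activity.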
Marburg entry inh – inhibitors of Marburg virus binding or cell entry. AID 540276. Marburg virus pseudotyped entry inhibition, cell reporter; control for the full effect not named in the record; about a third of the inactives were read at about 46 µM. 300,000 tested, 1.8% active. Potency, µM (titrated, usually from 37.8 µM), inactives show at the highest dose activity change, negative = inhibition, usual class: inhibitors; active = well fitted inhibition curve with a large enough effect; inconclusive = small, poorly fitted or top-dose-only effect, or effect the other way; inactive = flat fitted curve, though single readings scatter; tested in HEK293 cells; about a fifth of its hits are not listed in these tables; also: % is scaled to controls: 0 for no effect and ±100 for the full control effect; luciferase read-out
NS1 inh – influenza NS1 inhibition. S. cerevisiae slowed by influenza A NS1, growth recovery by OD600. Potency, µM (titrated, usually from 46.1 µM), inactives show top-dose activity, positive = more growth. 270,000 tested, 0.4% active; active means well fitted rising curve with a large enough effect; inconclusive means small, poorly fitted or top-dose-only effect; inactive means no such curve, though single readings can be large or run the other way; also: nearly all actives have a fitted effect of over 50% in size
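OD600 was taken as the measure of yeast growth restored by compound in an NS1-expressing S. cerevisiae strain. Cells had been washed out of glucose medium and diluted 1:100 into galactose -URA medium, pH 6.0.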
Cruzain noTriton – cruzain (T. cruzi) inhibition without detergent; P25779; purified cruzain, Z-FR-AMC fluorescence, no detergent; Potency, µM, for the others: max response, negative = inhibition, actives largely listed as inhibitors; 200,000 tested, 2.3% active;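 also: plate controls were enzyme without inhibitor for no effect and buffer without enzyme for full effect; nearly all actives have a fitted effect of over 40% in size; top concentration of the series not given in the record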
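Detergent-free condition (0.00005% Triton X-100) in acetate buffer pH 5.5 with DTT. 1.5 nM enzyme and compound were pre-mixed 15 min, then 2 uM Z-FR-AMC substrate added; reaction progress from fluorescence change between first and third reads (60 s).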
Lassa entry inh – Lassa virus entry inhibition | 300,000 tested, 1.2% active | Potency, µM (doses to about 37.9 µM), without a hit: at the highest dose activity change, negative = inhibition, most hits filed as inhibitors | Lassa virus pseudotype entry inhibition, cell reporter; control for the full effect not named in the record | AID 540256; active means well fitted inhibition curve with a large enough effect; inconclusive means small, poorly fitted or top-dose-only effect, or effect the other way; inactive means flat fitted curve, though single readings scatter; tested in HEK293 cells; also: % is scaled to controls: 0 for no effect and ±100 for the full control effect; nearly all actives have a fitted effect of over 50% in size; luciferase read-out
RE007 growth inh – less growth of the S. pombe RE007 Vpr strain; S. pombe RE007 Vpr strain, BacTiter-Glo ATP luminescence, 24 h; control for the full effect not named in the record; Potency, µM (series often up to 92.2 µM), for the others: top-dose activity change, negative = less growth; 360,000 tested, 0.21% active; AID 651644; active = well fitted falling curve with a large enough effect; inconclusive = small, poorly fitted or top-dose-only effect; inactive = no such curve, though single readings can be large or run the other way;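 also: % is scaled to controls: 0 for no effect and ±100 for the full control effect; nearly all actives have a fitted effect of over 50% in size; the assay follows cell death caused by Vpr and the record does not say whether a fall means rescue or toxicity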
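Fission yeast strain RE007, carrying one chromosomally integrated HIV-1 vpr copy, was seeded at OD 0.01 in PMG+AL medium with 23 nL pinned compound. After 24 h at 30 °C and 99% humidity, viability was read by BacTiter-Glo luminescence.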
SARS PLP yeast – blocks SARS-CoV papain-like protease in a yeast assay; Potency, µM (titrated, usually from 32.9 µM), inactives show at the highest dose activity, positive = growth rescue; 330,000 tested, 0.19% active; S. cerevisiae expressing SARS-CoV PLpro, growth rescue; control for the full effect not named in the record; AID 485353; active means well fitted rising curve with a large enough effect; inconclusive means small, poorly fitted or top-dose-only effect; inactive means no such curve, though single readings can be large or run the other way; also: 0% is about no effect; nearly all actives have a fitted effect of over 55% in size; growth read by luminescence after 48 h
2A StopGo – FMDV 2A StopGo reporter, luciferase signal | AID 1159524 | Potency, µM (series often up to 57.9 µM), for the others: at the highest dose signal change, negative = less light | 410,000 tested, 1.2% active | human cells with a luciferase reporter of 2A StopGo recoding; control for the full effect not named in the record; active = well fitted falling curve with a large enough effect; inconclusive = small, poorly fitted or top-dose-only effect; inactive = no such curve, though single readings can be large or run the other way; tested in HEK293T cells; also: % is scaled to controls: 0 for no effect and ±100 for the full control effect; nearly all actives have a fitted effect of over 45% in size; luciferase light after 4 h
* marks the source's active call; other numbers are inactive results; & = joins results of further samples; [ ] = another dose, or the depositor's remark. Unless noted, calls follow the shape of the dose curve; as a rule, active = well fitted curve in the direction sought with a large enough effect; inconclusive = small, poorly fitted or top-dose-only effect, or another doubt; inactive = no such curve, though single readings can be large; an effect the other way counts as inactive or inconclusive. Potency is read from the fitted curve at half-maximal effect.

Screening Cc1nnc2n(-c3ccccc3)c(=O)c3c4c(sc3n12)CCCC4 returned Cruzain inh Det -3.0%, Marburg entry inh 7%&7%, NS1 inh -20%, Cruzain noTriton -7%, Lassa entry inh 3%, RE007 growth inh -9%, SARS PLP yeast 3% and 2A StopGo -6%.
`CCCCOc1ccccc1C1C(C(N)=O)=C(C)Nc2nnnn21` (stereo not given) gave Cruzain inh Det 2.8%, Marburg entry inh 20%, NS1 inh -35%, Cruzain noTriton -11%, Lassa entry inh 0%, RE007 growth inh -11%, SARS PLP yeast 5% and 2A StopGo -19%.
Screening CCOc1cc(/C=C2/C(=O)ON=C2C)ccc1OCc1ccccc1F returned Cruzain inh Det -4.9%, Marburg entry inh inconclusive, NS1 inh -132%, Cruzain noTriton inconclusive, Lassa entry inh inconclusive, RE007 growth inh -20% and SARS PLP yeast 2%.
Screening Clc1ccc(NC2(c3nnnn3C3CCCCC3)CCCCC2)cc1 returned Cruzain inh Det -3.0%, Marburg entry inh inconclusive, NS1 inh 6%, Cruzain noTriton -12%, Lassa entry inh 10%, RE007 growth inh 0%, SARS PLP yeast -1% and 2A StopGo -10%.
For Cc1ccc(C)c(S(=O)(=O)N2CCCOC2CNC(=O)C(=O)NCc2ccc3c(c2)OCO3)c1 (stereo not given) the results were Marburg entry inh inconclusive, NS1 inh 4%, Lassa entry inh 0%, RE007 growth inh 4%, SARS PLP yeast -9% and 2A StopGo -18%.
For O=C(O)CC/C(=N/NC(=O)CNC(=O)C(c1ccccc1)c1ccccc1)c1ccccc1 the results were NS1 inh 7%, RE007 growth inh 4%, SARS PLP yeast -1% and 2A StopGo 4%.
COc1cccc2cc(C(C)N(CCCN3CCOCC3)C(=S)Nc3cccc(C)c3)oc12 (stereo not given) was read as Marburg entry inh 10µM*, Lassa entry inh inconclusive, RE007 growth inh -9%, SARS PLP yeast 0% and 2A StopGo -16%.
Screening CC(=O)OC1CCC2(C)C(CCC3C4CC(N5CC5)C(C(C)=O)C4(C)CC(=O)C32)C1 (stereo not given) returned Marburg entry inh inconclusive, Lassa entry inh -11%, RE007 growth inh -1% and 2A StopGo -18%.
`Nn1c(SCC(=O)NC2CCCCC2)nnc1-c1ccccc1F` gave Marburg entry inh 7%, Lassa entry inh -1%, RE007 growth inh -13%, SARS PLP yeast -2% and 2A StopGo 0%.
CC(C)OCCCNC(=S)NNC(=O)C(c1ccccc1)c1ccccc1 was read as Marburg entry inh inconclusive, NS1 inh -5%, Lassa entry inh -26%[46.1 µM], RE007 growth inh 2%, SARS PLP yeast 0% and 2A StopGo -12%.
O=C1c2nc3cc(-c4ccco4)[nH]n3c(=O)c2CN1C1CCCCC1 was read as NS1 inh 6%, RE007 growth inh -7%, SARS PLP yeast 1% and 2A StopGo 0%.
Screening CCCCC(=O)NC1(C(F)(F)F)C(=O)Nc2c1c(=O)n(C)c(=O)n2C (stereo not given) returned Cruzain inh Det 4.0%, Marburg entry inh 11%, NS1 inh 7%, Cruzain noTriton 9%, Lassa entry inh -2%, RE007 growth inh -1%, SARS PLP yeast 2% and 2A StopGo -10%.
For O=C(Nc1ccn(Cc2ccccc2F)n1)c1ccc(COc2ccc(Br)cc2)cc1 the results were Cruzain inh Det 1.9%, Marburg entry inh 7.3µM*, NS1 inh 1%, Cruzain noTriton inconclusive, Lassa entry inh -29%, RE007 growth inh -22%, SARS PLP yeast -1% and 2A StopGo inconclusive.
For C=CCNC(=O)Nc1ccc(Cl)cn1 the results were Cruzain inh Det 0.6%, Marburg entry inh 17%, NS1 inh 0%, Cruzain noTriton -8%, Lassa entry inh -1%, RE007 growth inh -4%, SARS PLP yeast -2% and 2A StopGo -4%.
Screening O=C(COc1cccc2c1CCN(Cc1ccc(Cl)cc1)C2=O)N1CCOCC1 returned Marburg entry inh inconclusive, Lassa entry inh inconclusive, RE007 growth inh -16%, SARS PLP yeast 0% and 2A StopGo 0%.
`CCCc1cc(=O)[nH]c(SCC(=O)c2c(N)n(CC(C)C)c(=O)n(C)c2=O)n1` gave Marburg entry inh inconclusive, Lassa entry inh inconclusive, RE007 growth inh 5%, SARS PLP yeast -4% and 2A StopGo 1%.
COc1cccc(NC(=O)OCCN2CCN(Cc3ccccc3)CCC2=O)c1 was read as Cruzain inh Det 1.7%&1.6%, Marburg entry inh 8%, NS1 inh -17%, Cruzain noTriton -6%&-3%, Lassa entry inh -6%, RE007 growth inh 8%, SARS PLP yeast -6% and 2A StopGo -11%.
`Cc1ccc(NC(=O)Cn2nnc(C(=O)NCc3cccs3)c2N)cc1` gave Cruzain inh Det 0.7%, Marburg entry inh -2%, NS1 inh 6%, Cruzain noTriton inconclusive, Lassa entry inh inconclusive, RE007 growth inh 4%, SARS PLP yeast -10% and 2A StopGo 3%.
Cc1ccc2cc(C)c(N3CCN(c4ccc(F)cc4)CC3)nc2c1 was read as NS1 inh 5%, RE007 growth inh 1%, SARS PLP yeast 0% and 2A StopGo inconclusive.
Screening NC(N)=NC1=NC(=O)/C(=C/c2ccccc2-n2cccn2)S1 returned Marburg entry inh inconclusive, Lassa entry inh -17%, RE007 growth inh 20% and 2A StopGo -10%.
Screening CN(C)CCOc1ccc2c(c1)Sc1ccccc1CC2=O returned Cruzain inh Det 0.1%, Marburg entry inh -3%, NS1 inh -4%, Cruzain noTriton -10%, Lassa entry inh inconclusive, RE007 growth inh -6%, SARS PLP yeast 23% and 2A StopGo -15%.
`O=C(NCCN1CCOCC1)c1cn(-c2ccccc2)nc1-c1cccs1` gave Cruzain inh Det -2.3%, Marburg entry inh 5%, NS1 inh 5%, Cruzain noTriton 1%, Lassa entry inh 1%, RE007 growth inh -3%, SARS PLP yeast -12% and 2A StopGo -1%.
Cc1[nH]c2ccccc2c1C(=O)CN1CCCC(C)C1 (stereo not given) was read as Marburg entry inh 5%, NS1 inh 3%, Lassa entry inh 12%, RE007 growth inh -14%, SARS PLP yeast -1% and 2A StopGo -8%.
For CNC(=O)CSc1nnc(NC(=O)Nc2ccccc2)s1 the results were Cruzain inh Det -12%, Cruzain noTriton 7%, Lassa entry inh -3%[46.1 µM] and 2A StopGo 27%.
CC(C)CCNC(=O)c1onc(CSc2ccc(F)c(F)c2)c1C(=O)NCCC(C)C was read as NS1 inh inconclusive, RE007 growth inh -11%, SARS PLP yeast -4% and 2A StopGo inconclusive.
For Cc1ccc([N+](=O)[O-])cc1S(=O)(=O)Nc1ccc(OCC(=O)N2CCOCC2)cc1 the results were Marburg entry inh inconclusive, NS1 inh 6%, Lassa entry inh -11%, RE007 growth inh -18%, SARS PLP yeast -5% and 2A StopGo -1%.
Screening COc1cc(/C=C/c2nc(C#N)c(NCCc3ccccc3)o2)cc(OC)c1OC returned Cruzain inh Det 8.6%, Marburg entry inh inconclusive, Cruzain noTriton inconclusive, Lassa entry inh inconclusive and 2A StopGo -9%.
`CC(C)CCNC(=O)CN(C(=O)CCC(=O)Nc1ccccn1)c1ccc2c(c1)OCO2` gave Cruzain inh Det 0.6%, Marburg entry inh 0%, NS1 inh -3%, Cruzain noTriton 5%, Lassa entry inh 1%, RE007 growth inh 6%, SARS PLP yeast 0% and 2A StopGo 19%.
`CC1CCCN(C(=O)C2CCN(S(=O)(=O)c3ccccc3)CC2)C1` (stereo not given) gave Marburg entry inh 20%, Lassa entry inh -36%, RE007 growth inh -3%, SARS PLP yeast -3% and 2A StopGo -29%.
CCOC(=O)c1cccc(NC(=O)Cn2ncc3c4ccccc4n(Cc4ccccc4)c3c2=O)c1 was read as Cruzain inh Det -2.6%, Marburg entry inh -3%[46.1 µM], Cruzain noTriton 4%, Lassa entry inh -6%[46.1 µM] and 2A StopGo 0%.
`COc1ccc(N2CCN(C(=O)c3cnc(N4CCCC4)nc3C)CC2)cc1` gave Cruzain inh Det 0.5%, Cruzain noTriton -10%, Lassa entry inh inconclusive and 2A StopGo -14%.
For COc1cccc(C(=O)Nc2ccccc2SCc2cc(=O)c3cccc(C)c3[nH]2)c1 the results were Cruzain inh Det 0.8%, Cruzain noTriton -5%, Lassa entry inh -10%[46.1 µM] and 2A StopGo 10%.
Screening CC(CCC(=O)O)C1CC[C@H]2C3CCC4CC(=O)CCC4(C)[C@H]3CC(=O)C12C (stereo not given in full) returned NS1 inh 8%, RE007 growth inh 13%, SARS PLP yeast 1% and 2A StopGo -8%.
`CCOc1ccc(OCC)c(NS(=O)(=O)c2c(C(=O)N3CCCCCC3)c(C)n(C)c2C)c1` gave Cruzain inh Det -3.9%, Cruzain noTriton inconclusive, Lassa entry inh -19%[46.1 µM] and 2A StopGo 58%[activator].
Screening CS(=O)(=O)Nc1ccc(C(=O)CSc2nnc(C3CC3)n2C2CC2)cc1 returned Marburg entry inh 19%, Lassa entry inh 0%, RE007 growth inh -20%, SARS PLP yeast -2% and 2A StopGo -12%.
For COc1ccc(CNC(=O)CN(C(=O)c2csnn2)c2cccc(C(C)=O)c2)cc1 the results were Marburg entry inh 6%[46.1 µM], NS1 inh -5%, Lassa entry inh 8%, RE007 growth inh -11%, SARS PLP yeast -1% and 2A StopGo 0%.
For O=C(O)c1cc(NC(=O)c2ccc3c(c2)C(=O)N(Cc2cccnc2)C3=O)cc(C(=O)O)c1 the results were Marburg entry inh 28%, NS1 inh -4%, Lassa entry inh -2%, RE007 growth inh -10%, SARS PLP yeast -4% and 2A StopGo inconclusive.
For CCCOc1ccc(C(=O)NC(=S)N2C[C@H]3C[C@H](C2)c2cccc(=O)n2C3)cc1 the results were NS1 inh -11%, RE007 growth inh -8%, SARS PLP yeast 4% and 2A StopGo 14%.
`CCOc1ccccc1N(C(=O)Cn1nnnc1-c1ccc(C)o1)C(CC)C(=O)NC(C)(C)C` (stereo not given) gave Cruzain inh Det -6.3%, Marburg entry inh inconclusive, NS1 inh -1%, Cruzain noTriton inconclusive, Lassa entry inh inconclusive, RE007 growth inh 8%, SARS PLP yeast -5% and 2A StopGo -5%.
Screening O=C1Nc2ncccc2OC1CCO (stereo not given) returned Cruzain inh Det -9.0%, Marburg entry inh 11%, NS1 inh 9%, Cruzain noTriton -5%, Lassa entry inh 3%, RE007 growth inh 5%, SARS PLP yeast 6% and 2A StopGo 9%.

From PubChem BioAssay
